TRPML1 blocker – blocks the human TRPML1 channel; Q9GZU1; TRPML1-inducible cells, Ca2+ dye fluorescence, FDSS; stronger effect = lower value; inhibition of EC80 agonist-evoked calcium signal; activity change, negative = inhibition, % (concentration not given with the values); 0.02% of 390,000 active; in the data active means activity change below about -50%; inconclusive means about -30% to -50%; inactive means above about -30%;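 also: stimulus is agonist 54-4 at its EC80 concentration; % is scaled to controls: 0 for no effect and ±100 for the full control effect; compound concentration not given in the record; the text of the record puts the active cut at -80%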
Target sequence (Q9GZU1 whole entry, looked up): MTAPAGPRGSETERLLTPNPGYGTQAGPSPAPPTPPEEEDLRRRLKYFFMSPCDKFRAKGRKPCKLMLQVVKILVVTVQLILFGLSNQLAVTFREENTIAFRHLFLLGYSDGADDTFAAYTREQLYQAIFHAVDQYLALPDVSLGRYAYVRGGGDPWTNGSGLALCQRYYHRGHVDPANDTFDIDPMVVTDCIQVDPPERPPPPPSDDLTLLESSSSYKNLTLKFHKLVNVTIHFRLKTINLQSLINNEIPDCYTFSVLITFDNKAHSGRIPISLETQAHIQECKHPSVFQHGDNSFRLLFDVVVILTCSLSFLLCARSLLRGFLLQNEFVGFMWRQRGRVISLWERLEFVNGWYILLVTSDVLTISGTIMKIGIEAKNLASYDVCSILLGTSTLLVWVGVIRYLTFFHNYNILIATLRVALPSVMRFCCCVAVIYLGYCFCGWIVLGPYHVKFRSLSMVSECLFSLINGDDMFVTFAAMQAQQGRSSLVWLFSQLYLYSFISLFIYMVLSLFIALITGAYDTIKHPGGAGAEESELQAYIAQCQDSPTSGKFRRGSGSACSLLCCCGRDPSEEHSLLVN
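TRPML1-DL cells, Tet-induced overnight (~16 h, 37 °C) at 1,500 cells/well, were loaded with Ca8 no-wash dye plus quencher for 45-90 min at room temperature. Compounds were pinned during FDSS kinetic reading; agonist 54-4 at EC80 (4 uM final) then added.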
TRPML1 ag – activates the human TRPML1 channel | TRPML1-expressing cells, Ca2+ dye fluorescence, FDSS; host cell line not named in the record; reference of the full effect not given here | 0.12% of 410,000 active | activation, % (no concentration beside the values) | Q9GZU1; in the data active = activation above about 50%; inconclusive = about 30% to 50%; inactive = below about 30%; also: 0% is about no effect; the text of the record puts the active cut at 80%
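Agonist activity was taken from a 110 s kinetic Ca2+ dye read on the FDSS after pinning compounds onto TRPML1-DL cells. The cells were seeded at 1,500/well with Tet inducer, incubated about 16 h, then dye-loaded at room temperature.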
Six1-Eya2 blk – inhibitors of human Six1/Eya2 interaction; Q15475+O00167; activity change, % (test concentration not listed); AlphaScreen GST-Six1/His-Eya2 binding, biochemical; stronger effect = lower value; control for the full effect not named in the record; 0.56% of 360,000 active; AID 651725; in the data active = activity change below about -65%; inconclusive = about -30% to -65%; inactive = above about -30%; also: % is scaled to controls: 0 for no effect and ±100 for the full control effect; compound concentration not given in the record
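AlphaScreen with GST-Six1 and His-Eya2 (5X mix: 250 nM and 500 nM), glutathione donor and nickel acceptor beads; buffer 50 mM Tris pH 8.0, 300 mM NaCl, 1 mM TCEP; 1 h at 37 C in the dark.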
CtBP-E1A blk – inhibitors of CtBP/E1A interaction. AlphaScreen GST-E1A/His-CtBP binding, 1536-well; stronger effect = lower value; control for the full effect not named in the record. activity change, % (concentration not given with the values). 0.49% of 340,000 active. AID 651724; in the data active means activity change below about -65%; inconclusive means about -30% to -65%; inactive means above about -30%; also: % is scaled to controls: 0 for no effect and ±100 for the full control effect
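AlphaScreen with 125 nM GST-E1A and 125 nM His-CtBP (5X stocks) in Tris pH 8.0, 300 mM NaCl, BSA, Tween 20, TCEP. Compounds preincubated 2 h at 37 deg C, then glutathione donor/nickel acceptor beads added for 1 h at 37 deg C in dark.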
PINK1 modulator – modulators of PINK1 expression | PINK1 immunofluorescence, high-content cytometry, 24 h | Potency, µM (doses to about 76.6 µM), inactives show top-dose activation (PINK1 increase), usual class: activators | 0.2% of 410,000 active | AID 624263; active = well fitted activation curve with a large enough effect; inconclusive = small, poorly fitted or top-dose-only effect; inactive = flat fitted curve, though single readings scatter; cell line not stated here;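 also: potency is read from the fitted curve at half-maximal effect; % of control where 0% means no effect; nearly all actives have a fitted effect of over 65% in size; a mitochondrial uncoupler was the plate control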
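Stable cell line treated 24 h with compounds at 5 concentrations (CCCP controls), then fixed and immunostained for PINK1 plus nuclear and cell stains; PINK1 immunofluorescence quantified by laser-scanning microplate cytometry.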
D2 ag – activates the human D2 dopamine receptor | DiscoveRx PathHunter D2 beta-arrestin, luminescence, 90 min; 100% = 57 uM dopamine signal | AID 624465 | activation, % (no concentration beside the values) | P14416 | 0.084% of 360,000 active; in the data active = activation above about 40%; inconclusive = about 15% to 40%; inactive = below about 15%; also: compound concentration not given in the record; the text of the record calls up to 30% inactive
Target sequence (P14416 whole entry, looked up): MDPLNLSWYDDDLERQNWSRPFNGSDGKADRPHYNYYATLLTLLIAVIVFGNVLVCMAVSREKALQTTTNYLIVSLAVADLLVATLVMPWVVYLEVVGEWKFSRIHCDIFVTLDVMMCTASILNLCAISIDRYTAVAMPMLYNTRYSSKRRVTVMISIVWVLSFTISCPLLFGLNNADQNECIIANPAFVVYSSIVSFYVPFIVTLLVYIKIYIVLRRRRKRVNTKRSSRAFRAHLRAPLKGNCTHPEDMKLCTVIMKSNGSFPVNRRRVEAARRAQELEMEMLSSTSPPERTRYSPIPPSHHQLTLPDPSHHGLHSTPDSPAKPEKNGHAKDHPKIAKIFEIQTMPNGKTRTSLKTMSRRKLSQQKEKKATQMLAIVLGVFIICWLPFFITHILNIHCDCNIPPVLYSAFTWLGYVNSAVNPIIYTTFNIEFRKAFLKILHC
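Agonist mode: compounds alone added to overnight-plated D2 PathHunter cells for 90 min at 37 C, with 57 uM final dopamine (EC100) defining full response. Beta-arrestin recruitment detected by chemiluminescent reagent, read after 1 h at ambient temperature.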
Starred values were filed as active, the others as inactive; ? = inconclusive; nt = no result given; & = joins results of further samples; [ ] = another dose, or the depositor's remark.

compound	TRPML1 blocker	TRPML1 ag	Six1-Eya2 blk	CtBP-E1A blk	PINK1 modulator	D2 ag
COc1ccc(-n2nnnc2SCC(=O)NC2CCCC2)cc1OC	-7	1.0	0	5	-0.6%	-5.1
CCOC(=O)[C@]12CCC=C1N(Cc1ccc3c(c1)OCO3)C(=O)[C@H](CC(=O)NCCCCc1ccccc1)C2	nt	1.2	4	-24	1.2%	nt
O=C(NCc1ccccc1)c1ccc2c(c1)CCN2S(=O)(=O)c1ccccc1	3	2.9	nt	nt	0.9%	nt
COC(=O)c1ccc2nc(-c3ccc(OC)c(OC)c3)c(CC3CCCCC3)n2c1	-4	-0.4	20	-9	6.4%	-1.8
Cc1ccccc1OCc1ccc(-c2nc(C#N)c(N3CCN(C)CC3)o2)o1	9	0.5	nt	nt	-1.1%	nt
CCCn1c(N)c(N(CCOC)C(=O)CCC2CCCCC2)c(=O)[nH]c1=O	-9	0.8	30	0	1.9%	-6.6
COC(=O)c1nonc1NCn1nnc2ccccc21	-8	-0.7	4	4	-0.7%	-3.6
COc1cccc(N(CC(=O)NCCSCc2ccco2)S(=O)(=O)c2ccccc2)c1	-7	4.3	16	-3	-1.7%	3.1
CCCCS(=O)(=O)Nc1ccc2ncn(C)c(=O)c2c1	2	2.4	-3	-5	-1.8%[38.3 µM]	-0.9
CCOc1ccc2[nH]c(=O)c(CN(Cc3ccccc3OC)C(=O)c3ccccc3)cc2c1	-14	2.5	3	2	?	-2.6
CN(C(=O)c1ccccc1)c1ccc(OCC(=O)NC2CCS(=O)(=O)C2)cc1 (stereo unspecified)	4	-0.2	6	4	-0.6%[38.3 µM]	-2.3
COCCNc1ncnc2c1cnn2-c1cc(Cl)ccc1C	-14	0.1	nt	nt	-0.2%	nt
Cc1ccc(NC(=O)c2cccc(NC(=O)CC3SC(N4CCCCC4)=NC3=O)c2)nc1 (stereo unspecified)	11	1.6	1	6	0.5%	6.6
Cc1c(N=Nc2ccc(N(C)C)cc2)c(=O)n(-c2ccccc2)n1C	0	0.1	-7	-2	1.4%	-6.6
O=C(CSc1nccc(=O)[nH]1)NCc1ccc(Cl)cc1	-2	0.5	3	-7	0.7%	4.0
Cc1c(CNC2CCCCC2)c(C(=O)O)c(C)n1Cc1ccc(F)cc1	-1	-0.9	nt	nt	1.1%	nt
Cc1occc1C(=O)NNC(=O)c1nn(C)c(=O)c2ccccc12	28	-0.2	0	0	2.5%	-2.1
COc1cccc(NC(=O)Cn2c3ccc(F)cc3c3nc4n(c(=O)c32)CCS4)c1	6	-0.6	-1	1	14%	-2.6
CN(C)CCCN(C(=O)c1ccc(S(=O)(=O)N(C)C2CCCCC2)cc1)c1nc2ccc(Br)cc2s1	8	0.6	-27	-30	-0.9%	-5.8
COc1ccc(N(CC(=O)NC(C)(C)C)S(=O)(=O)c2ccccc2)cc1OC	-9	-0.7	0	0	6.4%[38.3 µM]	-1.7
CC(=O)c1ccc(NC(=O)c2ccc(NC(=O)CCS(=O)(=O)c3cccs3)cc2)cc1	9&3	-0.5&-0.4	-15	-6	0.7%&1.2%	1.8
CCCCn1c(N)c(N(CC)C(=O)CCNC(=O)NC23CC4CC(CC(C4)C2)C3)c(=O)[nH]c1=O	0	-0.3	8	6	0.1%	-1.3
CC(Oc1ccccc1)C(=O)Nc1ccc(S(=O)(=O)N2CCOCC2)cc1 (stereo unspecified)	-11	2.9	0	1	nt	0.1
CC1CN(C(=O)c2cnn3c(C(F)F)cc(-c4ccccc4)nc23)CC(C)O1 (stereo unspecified)	-8	0.7	3	-3	nt	-1.2
CSc1ccc(CN(C)C(=O)c2cc3ccccc3o2)cc1	26	2.1	10	0	1.4%	-3.5
Cc1cc(NC(c2ccc(Cl)cc2)c2ccc3cccnc3c2O)no1 (stereo unspecified)	35	1.5	-66*	?	0.2%	1.0
O=C(Nc1ccn(CC(=O)N2CCN(c3ccccn3)CC2)c(=O)n1)OCc1ccccc1	3	0.8	-2	1	-0.7%	-2.4
CCOc1cc(N2CCOCC2)c(OCC)cc1NC(=O)CN1C(=O)NC2(CCCCCCC2)C1=O	-3	-0.6	-11	-4	1.1%	0.3
CC(C)Cn1c(N)c(C(=O)COC(=O)c2cc(C3CC3)nc3ccccc23)c(=O)n(C)c1=O	17	1.5	5	-22	2.2%	7.3
CCCc1cc(=O)n2nc(N3CCC(C(=O)N4CCN(c5ccc(OC)cc5)CC4)CC3)sc2n1	-18	1.2	0	nt	0.0%	2.6
CCOc1cccc(=O)c2c(C)n(-c3ccc(C(=O)O)cc3)c(C)c12	-1	0.9	-27	-4	0.8%	-0.3
CCc1ccc(NC(=O)CCCN2C(=O)C3CC=CCC3C2=O)cc1 (stereo unspecified)	17	-0.8	-6	1	2.3%	-2.1
CC1=NN(c2ccccc2)C(=O)/C1=C/c1cc(C)n(C2CC2)c1C	-12	-0.4	-3	nt	12%	2.1
CCOc1ccc(Nc2nc(Nc3ccc(O)cc3)nc(C)c2[N+](=O)[O-])cc1	21	1.3	-2	-4	1.6%	0.2
Cc1cccc(N(C(=O)c2snc(C(N)=O)c2N)C(C(=O)NCC2CCCO2)c2ccc(N(C)C)cc2)c1C (stereo unspecified)	-17	1.0	9	1	0.7%	-4.8
CCC(O)(CCN1CCCCC1)c1ccccc1 (stereo unspecified)	-3	-0.1	6	10	-1.4%	-2.6
CC(Sc1cccc(C(F)(F)F)c1)C(=O)NC(N)=O (stereo unspecified)	-1	-0.1	4	4	0.6%[38.3 µM]	0.5
CCN(CC)CCn1c2c(c(SCC(=O)Nc3nc4ccccc4s3)nc1=O)CCC2	4	-0.8	4	0	0.6%	-3.1
CCCCc1ccc(NS(=O)(=O)c2cccs2)cc1	-1	0.1	9	13	15%[38.3 µM]	0.8
Cc1cc(C)nc(N2CCCC(C(=O)NCCc3ccc(F)cc3)C2)n1 (stereo unspecified)	0	-0.3	3	1	-3.4%[38.3 µM]	-1.3
CC(C)(C)c1cc(N/C=C\c2nnnn2-c2ccc(Br)cc2)no1	-2	5.0	-3	5	8.8%	-1.2
CCC(CC)c1nnc(NC(=O)C23CC4CC(CC(NC(C)=O)(C4)C2)C3)s1	4	1.8	8	6	1.0%	-2.8
Cc1ccc(-n2c(SCC(=O)N(C)C)nnc2-c2ccco2)cc1	-10	0.1	5	nt	-0.6%	0.9
O=C(Nc1ccc(Cl)cc1)c1cccc(OC(=S)N2CCOCC2)c1	-3	1.1	-2	-6	4.0%	2.0
CCOc1cc(C(=O)NCc2ccc(-c3nc4ccccc4o3)cc2)cc(OCC)c1OCC	-10	1.8	4	11	?	-1.4
CCn1cc(C(=O)O)c(=O)c2cnc(N3CCN(C(=S)NC(=O)c4ccc(Cl)cc4)CC3)nc21	nt	nt	-2	-6	1.3%	-7.1
CCOc1ccc(CCNC(=O)c2cccc(S(=O)(=O)N3CCCCC3)c2)cc1OCC	-11	-0.4	-2	0	0.3%	0.1
Cc1ccccc1OCc1n(CC(=O)OC2CC(C)CCC2C(C)C)c2ccccc2[n+]1C (stereo unspecified)	22&45	-0.6&1.9	0&1	-6	-2.9%&-1.5%	1.2&-5.6
COc1ccc(-c2nc3ccccc3s2)cc1	-5	-0.4	7	nt	3.2%	-2.2
N#Cc1nc(Cc2cccc3ccccc23)oc1NCc1ccc(F)cc1	3	0.9	-20	-1	16%	-6.3
Cc1ccc(C(=O)n2nc(C)c(S(=O)(=O)N3CCCCCC3)c2C)cc1	-5	-0.3	nt	nt	1.8%	nt
O=C(CN1C(=O)C(=O)c2ccccc21)OCN1C(=O)c2ccccc2C1=O	-2	-0.5	-2	6	0.6%	-4.1
O=C(Nc1ccc(Cl)cc1)Nc1cnccn1	6	4.8	0	3	-2.9%	-5.9
Cc1ccc(/C=C/C(=O)c2ccc(O)cc2)cc1	-13	4.1	10	-18	0.2%	-3.2
CC(=O)Nc1ccnn1C1CCN(C(=O)c2cccc(C)c2C)CC1	42	0.1	-2	0	1.2%	-2.6
COc1ccc(OC)c(C2CC(=O)N3CN(c4cccc(Cl)c4)CSC3=C2C#N)c1 (stereo unspecified)	6	-0.7	-7	-10	0.8%	-0.9

Single records (already shown). Values in the order: TRPML1 blocker	TRPML1 ag	Six1-Eya2 blk	CtBP-E1A blk	PINK1 modulator	D2 ag
Listed for Cc1ccc(/C=C/C(=O)c2ccc(O)cc2)cc1 → -13	4.1	10	-18	0.2%	-3.2
Listed for O=C(Nc1ccc(Cl)cc1)Nc1cnccn1 → 6	4.8	0	3	-2.9%	-5.9
Listed for COc1ccc(OC)c(C2CC(=O)N3CN(c4cccc(Cl)c4)CSC3=C2C#N)c1 (stereo unspecified) → 6	-0.7	-7	-10	0.8%	-0.9
Listed for N#Cc1nc(Cc2cccc3ccccc23)oc1NCc1ccc(F)cc1 → 3	0.9	-20	-1	16%	-6.3
Listed for CC(=O)Nc1ccnn1C1CCN(C(=O)c2cccc(C)c2C)CC1 → 42	0.1	-2	0	1.2%	-2.6

Other results follow:
compound	TRPML1 blocker	TRPML1 ag	Six1-Eya2 blk	CtBP-E1A blk	PINK1 modulator	D2 ag
O=C(CSc1nc2ccccc2c(=O)n1-c1ccc(Cl)cc1)c1ccco1	20	1.1	1	0	5.2%	-1.2
CN(CCOc1ccc(Br)cc1)CC(O)c1ccccc1 (stereo unspecified)	47	1.1	-3	nt	1.5%	1.4
COc1cccc(CC(C(=O)Nc2cc(C)ccc2C)c2nn[nH]n2)c1OC (stereo unspecified)	7	-0.5	-3	-1	-0.3%	0.3
CCc1cc(-c2onc(C)c2-c2cscn2)c(O)cc1OC	3	0.9	8	-11	-0.3%	-0.3
Cc1cc(C)n(C(=O)Cn2nc([N+](=O)[O-])cc2C)n1	9	-0.6	5	-1	-0.4%	-6.6
CC1CCN(C(=O)Cn2c3ccccc3c3nc4n(c(=O)c32)CCS4)CC1	-4	-0.7	-4	nt	1.4%	-0.2
CC(C)OC(=O)C(C(=O)C(F)(F)F)c1cc(NS(=O)(=O)c2ccc3ccccc3c2)c2ccccc2c1O (stereo unspecified)	-14	0.2	?	-68*	22%	6.7
CCCc1nn2c(=O)cc(COC(=O)CNC(=O)COc3ccc(C)cc3)nc2s1	39	-0.3	nt	nt	0.7%	nt

Bioassay records: PubChem BioAssay, National Center for Advancing Translational Sciences (NCATS)
